Assay outcomes deposited in PubChem by ICCB-Longwood Screening Facility, Harvard Medical School.
PV pol inh = inhibitors of poliovirus RNA polymerase binding and polymerization; P03300; poliovirus polymerase elongation, fluorescence polarization; stronger effect = lower value; % elongation, % (compound at 16.7 µg/mL); 150,000 compounds, 0.66% hits; AID 588519; in the data active means % elongation below about 90%; further: some results filed as inactive read as strong as hits
MenB inh = blocks the Mycobacterium tuberculosis MenB enzyme. P9WNP5. MenB enzyme assay, absorbance read-out; some hits fall short of the stated cut. inhibition, %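 (about 12 µg/mL by stock and volumes)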. 100,000 compounds, 0.43% hits. AID 540299;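 active means mean of two replicates above 30%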;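 further: 0% = no compound and 100% = wells with inactive enzyme; the first replicate is given; strong numbers were not always called active; inactives centre near -10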
Target sequence (P9WNP5 whole entry, looked up): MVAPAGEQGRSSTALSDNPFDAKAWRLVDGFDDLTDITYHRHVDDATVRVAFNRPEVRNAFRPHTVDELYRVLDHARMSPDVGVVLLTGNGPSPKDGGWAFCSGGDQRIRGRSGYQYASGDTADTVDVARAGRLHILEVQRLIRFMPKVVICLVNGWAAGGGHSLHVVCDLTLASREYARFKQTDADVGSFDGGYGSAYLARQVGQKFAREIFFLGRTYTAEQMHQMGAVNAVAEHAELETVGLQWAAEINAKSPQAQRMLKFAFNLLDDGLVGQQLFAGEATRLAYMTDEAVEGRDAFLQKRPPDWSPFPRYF
Mtb MbtI inh = MbtI salicylate synthase inhibition; inhibition, %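 (about 17 µg/mL by stock and volumes)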; 100,000 compounds, 0.89% hits; P9WFX0; purified MbtI enzyme, fluorescence intensity read-out; AID 493033;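 active means above 50% in both replicates, above 80% if mildly self-fluorescent; inactive means the rest, strongly fluorescent compounds included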;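 further: 0% = mean of negative and 100% = mean of positive controls; one replicate is shown; some compounds called inactive have numbers as strong as hits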
Target sequence (P9WFX0 whole entry, looked up): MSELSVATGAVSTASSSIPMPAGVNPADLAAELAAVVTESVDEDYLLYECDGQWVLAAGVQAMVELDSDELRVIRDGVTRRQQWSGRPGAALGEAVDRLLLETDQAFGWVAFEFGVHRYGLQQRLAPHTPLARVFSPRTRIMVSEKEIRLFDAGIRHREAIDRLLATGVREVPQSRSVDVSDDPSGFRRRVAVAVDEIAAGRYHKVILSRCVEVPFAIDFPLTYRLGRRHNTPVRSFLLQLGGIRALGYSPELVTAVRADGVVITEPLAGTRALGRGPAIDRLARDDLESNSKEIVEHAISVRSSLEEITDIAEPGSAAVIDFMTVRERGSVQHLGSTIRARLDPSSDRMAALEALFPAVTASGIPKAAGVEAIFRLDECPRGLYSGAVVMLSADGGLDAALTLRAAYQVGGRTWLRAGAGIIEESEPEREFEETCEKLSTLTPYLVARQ
PV pol inh intensity = second read-out of PV pol inh, no call of its own (marks repeat the call); % elongation; measured here: total intensity read-out; formula for this scale not given here;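 total fluorescence in place of polarization; lower means less elongation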
Active calls of the source: *; · = no result given. Compounds were not picked by outcome, and some 1.8% of all compounds hit somewhere here.

| no. | smiles | PV pol inh | PV pol inh intensity | MenB inh | Mtb MbtI inh |
| --- | --- | --- | --- | --- | --- |
| 1 | CC(OC(=O)c1ccc(Cl)c(S(N)(=O)=O)c1)c1nnc(-c2cccs2)o1 (stereo not drawn) | 110 | 109 | -9 | 5 |
| 2 | CCN(C(=O)COc1ccc(C#N)cc1OC)C1CCCCC1 | 104 | 107 | 7 | -5 |
| 3 | Oc1ccc(Br)cc1C=Nc1nonc1-c1ccccc1 | 100 | 97 | -6 | · |
| 4 | COc1ccc(N(C(C)=O)C2SC(=O)N(c3ccccc3)C2=O)cc1 (stereo not drawn) | 104 | 109 | 0 | -5 |
| 5 | Cc1c(C(=O)NCCN2CCOCC2)oc2c1-c1nn(Cc3ccccc3Cl)cc1CC2 | 103 | 103 | -13 | 51 |
| 6 | CCN(CC)c1ccc(C=Nc2cc(C)cc(C)c2)cc1 | 103 | 105 | -5 | · |
| 7 | CC1(c2ccc(Cl)cc2)NC(=O)N(CN2CCCC(C(F)(F)F)C2)C1=O (stereo not drawn) | 101 | 102 | -7 | -10 |
| 8 | O=C1NC(Cc2ccccc2)(Cc2ccccc2)C(=O)N1Cc1nnc(-c2cccs2)o1 | 102 | 107 | 4 | 0 |
| 9 | CCc1ccc2nc(N3CCCC3)c(C#N)cc2c1 | 99 | 102 | -136 | -12 |
| 10 | c1ccc(-c2cn3c4ccccc4n(CCN4CCCCC4)c3n2)cc1 | 94 | 84 | -17 | · |
| 11 | O=C(Nc1cccn(Cc2ccccc2)c1=O)NC1CCCCC1 | 101 | 100 | 20 | 90 |
| 12 | O=C1NCCN1CCNS(=O)(=O)c1ccc(F)c(Cl)c1 | 102 | 99 | 4 | -12 |
| 13 | Cc1nnc(SC(C)C(=O)Nc2ccccc2)[nH]c1=O (stereo not drawn) | 103 | 101 | -24 | 12 |
| 14 | COc1ccc(N2CCN(c3ccc(S(=O)(=O)N(C(C)C)C(C)C)cn3)CC2)cc1 | 105 | 109 | -38 | -6 |
| 15 | C=C(C)CNC(=S)N1CCSC1=Nc1ccccc1OC | 104 | 103 | 0 | 1 |
| 16 | OCC1CC2CC(O)CC(C1)C2 (stereo not drawn) | 102 | 108 | · | -6 |
| 17 | NN(CCC(=O)NC1CCCCC1)C1=NS(=O)(=O)c2ccccc21 | 104 | 108 | -22 | · |
| 18 | Cc1oc(-c2ccccc2)cc1C(=O)/C=C/N(C)C | 99 | 99 | -14 | 5 |
| 19 | FC(F)C(F)(F)Oc1ccccc1 | 104 | 106 | -6 | 0 |
| 20 | CCOc1ccc(NC(=O)CSc2nc(=O)n(CCCN3CCOCC3)c3c2CCCC3)cc1 | 104 | 103 | -20 | -4 |
| 21 | NC(=O)CNC(=O)c1ccc2ccccc2n1 | 106 | 112 | -20 | · |
| 22 | CCc1ccc2oc3nc(N)c(C#N)cc3c(=O)c2c1 | 103 | 106 | 12 | -4 |
| 23 | Cc1csc(NC(=O)c2cccnc2)n1 | 101 | 101 | 9 | 11 |
| 24 | N#Cc1ccc(CON2C(=O)CCC2=O)cc1 | 109 | 110 | -9 | 5 |
| 25 | O=C(Cc1c[nH]c2ccccc12)N1CCN(S(=O)(=O)c2ccc(F)cc2)CC1 | 99 | 102 | 7 | -3 |
| 26 | CCCCc1cc(=O)oc2cc(OCC(=O)c3ccc(F)cc3)ccc12 | 103 | 106 | -18 | -2 |
| 27 | CN1C(=O)c2ccccc2Sc2ccc(NC(=O)NCCCN3CCOCC3)cc21 | 98 | 102 | 14 | -12 |
| 28 | Cc1ccc(-c2nn(-c3ccccc3Cl)cc2C(=O)Oc2ccc(-c3nnco3)cc2)cc1 | 102 | 99 | 16 | 4 |
| 29 | CCOC(=O)Cn1nc(C(F)(F)F)c(Br)c1C1CC1 | 106 | 105 | -5 | -10 |
| 30 | CC1Cc2ccccc2N1C(=O)COc1ncnc2ccc(Br)cc12 (stereo not drawn) | 101 | 95 | 17 | 6 |

| no. | smiles | PV pol inh | PV pol inh intensity | MenB inh | Mtb MbtI inh |
| --- | --- | --- | --- | --- | --- |
| 31 | CCn1c(=O)n(CC)c2cc(NC(=O)CSc3ncc(C#N)c(N)n3)ccc21 | 105 | 102 | -46 | 7 |
| 32 | Cc1ccc(C(=O)CCNc2ccc(F)c(Cl)c2)o1 | 102 | 102 | 20 | 3 |
| 33 | CCn1cc2nc(SC)n(CCc3ccccc3)c(=O)c2n1 | 103 | 103 | -13 | -30 |
| 34 | COc1c2c(nc3occc13)C(CC=C(C)C)(OC)C(O)CC2 (stereo not drawn) | 99 | 104 | -18 | 1 |
| 35 | COc1cc(C(Nc2ccc(S(=O)(=O)NCC3CCCO3)cc2)C(=O)NC(C)(C)C)cc(OC)c1OC (stereo not drawn) | 102 | 101 | 31 | 1 |
| 36 | O=C(COc1coc(CN2CCN(Cc3ccccc3)CC2)cc1=O)NC1CCCCC1 | 105 | 101 | -8 | 13 |
| 37 | O=S(=O)(NC1CC1)c1ccc(S(=O)(=O)N2CCC3(CC2)OCCO3)cc1 | 102 | 105 | -8 | -12 |
| 38 | O=C(N=Nc1c(O)n(CN2CCCC2)c2ccccc12)c1ccccc1 | 105 | 102 | -38 | -15 |
| 39 | O=C(NC1CCCC1)C(c1cccs1)N(Cc1ccccc1)C(=O)C(F)(F)F (stereo not drawn) | 104 | 105 | -11 | · |
| 40 | CN(C)C(=S)SCC(=O)NC1CCCCCC1 | 100 | 96 | -8 | 9 |
| 41 | CN(C)S(=O)(=O)c1ccc(N=CC2=C(O)CC(C)(C)CC2=O)cc1 | 95 | 96 | -2 | 15 |
| 42 | O=C(Cc1cccs1)NCc1ccc2[nH]c3c(c2c1)CCCC3 | 97 | 101 | -2 | -6 |
| 43 | O=C(COC(=O)C1CC1)c1ccccc1Br | 105 | 125 | -17 | 0 |
| 44 | COc1cc(/C=N/n2c(=S)[nH]nc(C)c2=O)cc(OC)c1OC | 102 | 100 | -20 | -5 |
| 45 | O=C1C=CC(=O)N1CCc1ccccc1 | 102 | 107 | · | 93* |
| 46 | COc1ccc(N2Cc3ccc(OC)c(OC)c3C2=O)cc1 | 103 | 103 | · | -2 |
| 47 | O=C(N/N=C/c1ccc([N+](=O)[O-])o1)c1ccc(O)cc1 | 102 | 101 | -1 | 11 |
| 48 | O=C(NC1CCCCCC1)c1ccc(CS(=O)(=O)Cc2ccccc2F)o1 | 100 | 102 | -6 | -7 |
| 49 | CC(=O)Nc1c(C)nc2nc[nH]n2c1=O | 107 | 106 | 0 | · |
| 50 | Brc1cccc(Nc2nc3nonc3nc2NCc2ccco2)c1 | 105 | 111 | -22 | -23 |
| 51 | CCOC(=O)c1ccsc1NC(=O)CN1C(=O)c2ccccc2C1=O | 103 | 107 | -5 | -1 |
| 52 | C[C@H]1[C@H]2CC[C@H]3[C@@H]4CC=C5C[C@@H](N(C)C)CC[C@]5(C)[C@H]4CC[C@]23CN1C | 103 | 101 | -1 | -16 |
| 53 | Nc1ccccc1C1CC1 | 101 | 101 | 26 | 1 |
| 54 | CC1(C)COC(c2ccc(O)cc2)OC1 | 104 | 111 | -6 | · |
| 55 | O=C(CON1C(=O)CCC1=O)N1CCN(c2ccccc2)CC1 | 98 | 99 | -4 | 190 |
| 56 | Cc1nc(C)c(NC(=O)N2CCCCC2C)cc1NC(=O)N1CCCCC1C (stereo not drawn) | 105 | 103 | -17 | -2 |
| 57 | Cc1c(C(=O)Oc2ccccc2F)oc2ccccc12 | 101 | 102 | 0 | -2 |
| 58 | Clc1ccc(C2Nc3ccccc3O2)cc1Cl (stereo not drawn) | 102 | 103 | -5 | -4 |
| 59 | CC(C)(O)c1cc(=O)sc2nc3ccccc3n12 | 101 | 99 | 12 | 1 |
| 60 | Cc1cc(C)cc(OCC(=O)N2CCNC(=O)C2CC(=O)OCc2ccccc2)c1 (stereo not drawn) | 102 | 100 | -9 | -2 |

Screens in order: PV pol inh, PV pol inh intensity, MenB inh, Mtb MbtI inh
(61) COc1ccc2nc(-c3ccccc3)nc(N3CCCCC3)c2c1
  104, 106, -14, ·
(62) COc1ccccc1CNC(=O)C(C)N1C(=O)COc2ccc(C)cc21 (stereo not drawn)
  100, 101, -3, -4
(63) Cc1ccc(-n2c(SCC(=O)NCC3CCCO3)nc3n[nH]c(C)c3c2=N)cc1Cl (stereo not drawn)
  100, 106, -14, -10
(64) CCC1/C(=N\O)CC(c2ccco2)NC1c1ccco1 (stereo not drawn)
  100, 101, 5, -7
(65) O=C(Nc1ccc(F)cc1)N1CCCC(c2nc3c(nnn3Cc3ccccc3Cl)c(=O)[nH]2)C1 (stereo not drawn)
  100, 104, 2, -4
(66) COc1cccc(CNC(=O)Nc2ccc3nc(N4CCN(C)CC4)cc(C)c3c2)c1
  100, 99, 8, 69
(67) O=S(=O)(c1ccc(Cl)s1)N1CCSc2ccccc21
  105, 111, -7, -10
(68) C(=Nc1cccc2c(N=Cc3ccco3)cccc12)c1ccco1
  90, 113, 5, ·
(69) S=c1sc2ccccc2n1CN1CCN(Cc2ccccc2)CC1
  99, 106, -32, 35
(70) CCN(CC)C(=O)c1ccc(COc2ccc(Cl)c(C)c2)o1
  100, 103, -6, 9

Screens in order: PV pol inh, PV pol inh intensity, MenB inh, Mtb MbtI inh
(71) Cc1ccc(C(=O)NNc2ncnc3c2cnn3C)cc1
  103, 102, -5, -9
(72) CCc1cccc(CC)c1NC(=O)COC(=O)c1ccc2ccccc2n1
  97, 133, ·, 0
(73) Cc1nc(NCC(=O)O)c2oc3ccccc3c2n1
  104, 102, -33, 23
(74) CC[C@H](C)[C@H](NC(N)=O)C(=O)Nc1ccccc1
  107, 106, -17, -6
(75) O=C1CSc2ccc(S(=O)(=O)CCC(=O)N3CCCCCC3)cc2N1
  101, 101, -4, -30
(76) CC(C)(C)C1CC=C2[C@H](C1)[C@@H](c1ccsc1)C(C#N)=C(N)C2(C#N)C#N (stereo partly drawn)
  103, 94, -9, ·
(77) O=C(NCc1ccc2c(c1)OCO2)c1ccc(Cl)cc1
  104, 104, -21, ·
(78) Cc1nn(C)c(C)c1CNC(=O)c1cc2nc(-c3ccc4c(c3)OCO4)cc(C(F)(F)F)n2n1
  104, 99, -1, 17
(79) CC(=O)Nc1ccc(C)c(OC(F)F)c1
  104, 105, -20, 8
(80) Cc1ccc(S(=O)(=O)Nc2ccc3nc(-c4ccccn4)[nH]c3c2)cc1
  100, 105, -40, 161

Screens in order: PV pol inh, PV pol inh intensity, MenB inh, Mtb MbtI inh
(81) CC1(C)COC(O)(C(F)(F)F)CC1=O (stereo not drawn)
  107, 107, -3, ·
(82) CC(C)c1ccccc1OCC(=O)c1ccc(O)cc1O
  101, 101, -2, -2
(83) c1cn(-c2ncnc3sc4c(c23)CCC4)cn1
  102, 110, -7, 28
(84) Cc1cc(=O)oc(C)c1C(=O)NCC1COc2ccccc2O1 (stereo not drawn)
  103, 103, -23, 2
(85) N#Cc1ccc(COC(=O)C2CCN(c3nc4ccccc4o3)CC2)cc1
  107, 103, -23, -32
(86) CC1CCCC/C1=N\NS(C)(=O)=O (stereo not drawn)
  95, 92, -9, -5
(87) Cc1nn(-c2ccccc2)c2sc(C(=O)OCSc3ncccn3)cc12
  104, 108, -22, 0
(88) CCN(CC)c1ccc(NC(=O)CCNS(=O)(=O)c2ccc3c(c2)CCC(=O)N3)c(C)c1
  98, 106, -25, 1
(89) CCn1c2ccccc2c2cc(C=Nc3ccc(C)cc3O)ccc21
  110, 116, -56, ·

Compounds above with a Cl atom:
Screens in order: PV pol inh, PV pol inh intensity, MenB inh, Mtb MbtI inh
(1) CC(OC(=O)c1ccc(Cl)c(S(N)(=O)=O)c1)c1nnc(-c2cccs2)o1 (stereo not drawn)
  110, 109, -9, 5
(5) Cc1c(C(=O)NCCN2CCOCC2)oc2c1-c1nn(Cc3ccccc3Cl)cc1CC2
  103, 103, -13, 51
(7) CC1(c2ccc(Cl)cc2)NC(=O)N(CN2CCCC(C(F)(F)F)C2)C1=O (stereo not drawn)
  101, 102, -7, -10
(12) O=C1NCCN1CCNS(=O)(=O)c1ccc(F)c(Cl)c1
  102, 99, 4, -12
(28) Cc1ccc(-c2nn(-c3ccccc3Cl)cc2C(=O)Oc2ccc(-c3nnco3)cc2)cc1
  102, 99, 16, 4
(32) Cc1ccc(C(=O)CCNc2ccc(F)c(Cl)c2)o1
  102, 102, 20, 3
(58) Clc1ccc(C2Nc3ccccc3O2)cc1Cl (stereo not drawn)
  102, 103, -5, -4
(63) Cc1ccc(-n2c(SCC(=O)NCC3CCCO3)nc3n[nH]c(C)c3c2=N)cc1Cl (stereo not drawn)
  100, 106, -14, -10
(65) O=C(Nc1ccc(F)cc1)N1CCCC(c2nc3c(nnn3Cc3ccccc3Cl)c(=O)[nH]2)C1 (stereo not drawn)
  100, 104, 2, -4
(67) O=S(=O)(c1ccc(Cl)s1)N1CCSc2ccccc21
  105, 111, -7, -10
(70) CCN(CC)C(=O)c1ccc(COc2ccc(Cl)c(C)c2)o1
  100, 103, -6, 9
(77) O=C(NCc1ccc2c(c1)OCO2)c1ccc(Cl)cc1
  104, 104, -21, ·
